UCH37 DUB inh – blocks the human deubiquitinase UCH37; 330,000 tested, 0.33% active; Q9Y5K5; inhibition, % (test concentration not listed); purified proteasome/UCH37, Ub-AMC cleavage fluorescence;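 active means mean of two replicates above 20%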;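 further: 0% = compound-free wells with enzyme and 100% = wells lacking proteasome; stock transfer was 100 nL into about 20 µL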
Target sequence (Q9Y5K5 whole entry, looked up): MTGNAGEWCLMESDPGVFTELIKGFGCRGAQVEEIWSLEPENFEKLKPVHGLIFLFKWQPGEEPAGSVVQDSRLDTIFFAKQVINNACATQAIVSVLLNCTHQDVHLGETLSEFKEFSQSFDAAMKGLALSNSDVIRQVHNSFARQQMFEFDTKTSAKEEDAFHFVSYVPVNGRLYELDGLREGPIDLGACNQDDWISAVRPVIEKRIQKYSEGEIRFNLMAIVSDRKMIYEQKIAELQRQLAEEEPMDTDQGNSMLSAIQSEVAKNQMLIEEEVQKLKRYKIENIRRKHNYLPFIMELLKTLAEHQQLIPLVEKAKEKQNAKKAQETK
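Material: Human UCH37 enzyme supplied as purified proteasome complex | Schedule: 30 min compound-proteasome preincubation then 25 min substrate reaction, room temperature | Detection: AMC fluorescence from Ub-AMC cleavage, excitation 355 nm, emission 460 nm | Benchmarks: Wells without proteasome as full block, compound-free enzyme plus substrate as uninhibited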
Vif TR-FRET – inhibitors of Vif binding to APOBEC3G peptide, primary screen, biochemical, TR-FRET, GST-Vif 1-94, biotin-A3G peptide, dose response retest (AID 1117319) | TR-FRET GST-Vif / biotin-A3G peptide binding; higher % means a stronger effect; test concentration not given here; strong numbers were not always called active | one-dose inhibition, %; IC50 in µM for titrated hits | 260,000 tested, 0.57% active;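 active means above the screen mean plus three standard deviations and confirmed in dose response; inconclusive means results disagree or hit not tested in dose response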;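 further: Vif residues 1-94 fused to GST binding biotinylated APOBEC3G peptide 110-148; 0% = full assay without inhibitor and 100% = GST in place of GST-Vif; retest series ran down from 100 µM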
HNF4A DNA FP – change in binding of human HNF4 alpha to DNA; P41235; HNF4a-FITC DNA binding, fluorescence polarization, 1 h; activity change, % at 10 µM; 360,000 tested, 0.3% active; AID 1224865; in the data active means activity change above about 30%, passing the limit was not always enough;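 further: controls were the assay level and a saturating level of protein; the project sought stronger binding though the title names inhibitors; some compounds called inactive have numbers as strong as hits; positive values seem to mean higher polarization but the record does not say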
Target sequence (P41235 whole entry, looked up): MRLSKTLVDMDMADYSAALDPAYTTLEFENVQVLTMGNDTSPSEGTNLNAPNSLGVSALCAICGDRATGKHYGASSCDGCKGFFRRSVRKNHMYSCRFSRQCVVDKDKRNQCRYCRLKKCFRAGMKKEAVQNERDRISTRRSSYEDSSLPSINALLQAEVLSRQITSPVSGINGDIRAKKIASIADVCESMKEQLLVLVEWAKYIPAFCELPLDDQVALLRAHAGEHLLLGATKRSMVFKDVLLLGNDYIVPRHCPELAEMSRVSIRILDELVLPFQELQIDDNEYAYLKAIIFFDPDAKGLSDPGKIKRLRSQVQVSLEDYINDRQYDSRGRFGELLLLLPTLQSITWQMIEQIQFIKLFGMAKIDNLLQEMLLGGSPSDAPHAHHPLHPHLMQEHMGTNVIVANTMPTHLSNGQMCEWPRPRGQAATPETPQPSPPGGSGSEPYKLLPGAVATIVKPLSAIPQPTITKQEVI
Ecoli growth – inhibitors of Escherichia coli growth. OD600, 23 h; stronger effect = lower value. 330,000 tested, 0.21% active. OD600 absorbance (concentration not given with the values);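 active means OD600 absorbance below the run mean of sample wells minus 3.6 SD, in any replicate, cut at about 0.56 in these data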;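 further: stock transfer was 300 nL into about 60 µL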
FGF22 binding – binders of recombinant human FGF22 by thermal shift. calls only at 9.99 µM. Q9HCT0. 340,000 tested, 1.5% active. AID 651658. SYPRO orange fluorescence; percent of sucrose octasulfate shift, DMSO zero;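 active means melting point raised past a set limit in the mean and every replicate; inconclusive means no clear call; three in four hits are not shown here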
Target sequence (Q9HCT0 whole entry, looked up): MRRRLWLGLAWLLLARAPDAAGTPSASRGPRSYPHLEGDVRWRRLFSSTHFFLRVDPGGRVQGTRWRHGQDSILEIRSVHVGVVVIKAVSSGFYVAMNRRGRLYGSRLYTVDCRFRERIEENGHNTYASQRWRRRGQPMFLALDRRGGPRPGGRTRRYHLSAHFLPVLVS
RanGTP-Impb inh – disruptors of Ran-importin-beta complex formation – biochemical, FRET, CFP-Ran, YFP-importin-beta, homogeneous, primary screen | cell-free CFP-Ran/YFP-importin-beta FRET ratio | inhibition, % (no concentration beside the values) | 300,000 tested, 1.1% active | AID 2216;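 active means most replicates above 15%; inconclusive means exactly half above 15%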;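 further: 0% = DMSO wells and 100% = Ran loaded with GDP instead of GTP; wells of about 40 µL received 100 nL stock; the first replicate is given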
AF4-AF9 inh – blocks AF4 peptide binding to human AF9 | P42568 | AlphaScreen, biotin-AF4 peptide binding to FLAG-AF9 | inhibition, % at 10 µM | 350,000 tested, 0.47% active | AID 651704;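 active means every replicate reaching a set inhibition limit, whatever the replicate mean, cut at about 25% in these data; inconclusive means mean inhibition reaches that limit but some replicates miss it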;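 further: 0% = plate neutral control median and 100% = total signal loss; the record names both 10 and 1 µM as test concentration; the first replicate is given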
* hit, by the source's call; i = inactive; ? = inconclusive; · = not tested or not shown; & = joins results of further samples.

SMILES	UCH37 DUB inh	Vif TR-FRET	HNF4A DNA FP	Ecoli growth	FGF22 binding	RanGTP-Impb inh	AF4-AF9 inh
CC(C)C(c1nnnn1Cc1ccc2c(c1)OCO2)N1CCN(C)CC1 (stereo not drawn)	0.3	8%	-0.3	0.69	·	-44	·
CCOC(=O)C(C)Sc1nnc(Cc2cc(=O)[nH]c(=O)[nH]2)n1-c1ccc(OCC)cc1 (stereo not drawn)	2.9	6%	10	0.73	i	·	-4.6
COc1ccc(C(=O)NCC(=O)N2CCCCC2)cc1OC	1.1	-4%	5.4	0.64	i	2.8	-2.5
COC(=O)CCCC(=O)N(C)CC1CCCN(CCc2ccccc2C)C1 (stereo not drawn)	·	0%	-1.8	·	i	-6.4	0.3
COc1ccc(OC)c(-n2c(-c3ccc(O)cc3O)n[nH]c2=S)c1	2.2	·	-4.3	0.66	i	?	-12
Cc1nc([N+](=O)[O-])c(C(=O)OCc2cccc(Br)c2)n1C	2.8	11%	-0.9	0.65	·	2.7	4.5
CC#CCOC(=O)c1c(C)nc2sc3c(c2c1N)CCC(O)C3 (stereo not drawn)	-2.6	·	5.1	0.76	i	·	-4.8
O=c1[nH]c(C(F)(F)F)nc2c1nc1n2CCC1	·	7%	-2.2	·	i	·	-4.5
Cc1nnc(SCCN2CCOCC2)c2nn(-c3ccccc3F)c(C)c12	4.0	·	1.2	0.66	·	-13	·
Nn1c(SCC(=O)Nc2ccc3c(c2)OCO3)nnc1C1CCCCC1	4.8	4%	4.5	0.64	·	0.9	·
Brc1ccc(-c2ccc(/C=N/Nc3nncc(-c4ccccc4)n3)o2)cc1	·	4%	1.6	·	·	3.9	·
COCCN(C(=O)CCC(=O)Nc1cc(C)on1)C(C(=O)NC(C)(C)C)c1ccccc1Cl (stereo not drawn)	-1.8	-4%	-2.8	0.66	·	1.4	-0.7
CSc1cccc(CN2CCN(Cc3ccc(F)c(F)c3)C(CCO)C2)c1 (stereo not drawn)	2.2	-4%	0.7	0.68	i	?	5.7
COc1ccc(CP(=O)(c2ccccc2)c2ccccc2)cc1	0.4	·	-1.5	0.67	i	0.0	-2.0
NS(=O)(=O)c1ccc(CNC(=S)NCc2ccc(F)cc2)cc1	3.3	-3%	0.4	0.71	i	-1.5	0.0
CC(=O)Nc1cccc(-c2csc(NCc3ccco3)n2)c1	2.8	-1%	-1.1	0.71	·	1.8	·
CNC(=O)/C(C#N)=C/c1ccc(-c2nc3ccccc3s2)o1	·	4%	2.8	·	i	-5.0	2.2
NCCC(=O)N1c2ccccc2Sc2ccccc21	1.1	56%	-1.0	0.69	i	0.6	3.9
C/C(=C\C(=O)c1cccnc1)Nc1ccc(O)cc1	11	?	1.3	0.66	·	0.5	·
Cc1cccc(Cn2nc(C(C)(C)C)cc2C(=O)N2CCOCC2)c1	0.0	-2%	-0.5	0.69	i	3.2	0.5
COCCN1C(=O)C(=O)/C(=C(/O)c2ccc(OC(C)C)cc2)C1c1cccnc1 (stereo not drawn)	13	3%	0.5	0.66	·	?	·
COc1ccc(OC)c(/C=N\NC(=O)c2c(C)nc3cc(C)ccn23)c1	·	·	5.1	·	i	?	3.3
C=C(C)CSc1nc(N)c2c3c(sc2n1)CCC3	3.9	1%	3.5	0.74	i	?	0.4
O=[N+]([O-])c1ccc(Cl)cc1CNc1ccc(F)c(F)c1	1.4	-5%	2.3	0.64	·	1.3	·
O=C(O)Cc1sc(-c2ccc(C(=O)O)cc2)nc1-c1ccccc1	-25	·	-0.9	0.69	i	-1.2	-2.8
CCOc1ccc(C2c3cc(OC)c(OC)cc3CC(=O)N2c2ccccc2)cc1 (stereo not drawn)	1.7	13%	1.7	0.67	·	1.2	·
O=C(OCc1cccc(C(F)(F)F)c1)c1cc([N+](=O)[O-])ccc1N1CCOCC1	4.9	-10%	2.1	0.69	i	-2.1	2.4
Cc1cccc(N2CCN(C(=O)CCc3nc4ccccc4c(=O)[nH]3)CC2)c1C	-0.7	-12%	2.5	0.73	i	·	0.4
Fc1ccccc1N1CCN(CC2CCCCC2)CC1	0.9	·	5.7	0.61	i	0.4	1.9
CCc1cc(C(=O)N2CCN(c3ccccn3)CC2)sc1C	0.5	-6%	-2.6	0.68	i	-0.4	-2.0
CCc1noc(C)c1C(=O)OCC(=O)NC(=O)c1ccccc1OC	0.2	·	-1.2	0.65	i	-3.1	-2.8
CS(=O)(=O)c1ccc2nc(NC(=O)CCC(=O)c3cccs3)sc2c1	-0.8	-45%	7.0	0.74	·	-1.3	·
CN1CCN(C(=O)c2cc3c(s2)-c2ccccc2S(=O)(=O)C3)CC1	6.1	6%	-1.0	0.7	i	?	-12
C=CCNc1nc(NCc2ccccc2)c(C#N)c2c1CN(C)CC2	-46	2%	-7.6	0.7	·	109*	·
COc1ccccc1OCCn1ccnc1	-6.9	-2%	0.8	0.65	i	2.8	-1.3
COc1ccc(S(=O)(=O)N2CCCCC2)cc1NC(=O)CN1C(=O)NC(C)(C2CC2)C1=O (stereo not drawn)	1.5	-2%	-1.4	0.66	i	·	0.3
CCOC(=O)c1ccccc1NC(=O)COC(=O)C1CC(=O)N(c2ccc3c(c2)OCCO3)C1 (stereo not drawn)	2.7	-2%	3.4	0.69	i	2.7	0.1
O=C(O)C1CCC(C(=O)O)SS1 (stereo not drawn)	-1.6	-2%	1.7	0.68	i	·	-2.0
CCOc1ccc(Cl)cc1S(=O)(=O)N1CCC(C(=O)NC2CC2)CC1	0.3	·	-3.8	0.69	i	-2.2	-1.2
NC(=O)C1CCN(C(=O)CC2(CC(=O)O)CCCC2)CC1	4.1	·	2.4	0.63	i	-1.0	-0.8
CC1=C(C(=O)N(C)C)CC(CC(=O)NC2CCCC2)C(=O)N1CCCN1CCCC1=O (stereo not drawn)	·	-1%	-0.4	·	i	·	0.9
CCOC(=O)c1ccc(NC(=O)Cn2c(C)nc3c(sc(=S)n3CC)c2=O)cc1	7.3	·	3.8	0.69	i	-2.4	-4.1
N#Cc1ccccc1CSc1nc(N)cc(N)n1	0.1	-1%	2.8	0.58	i	0.6	-0.1
O=C(CCCNS(=O)(=O)c1ccccc1)NCc1ccco1	0.9	?	3.1	0.72	·	4.8	·
O=C(NCCCN1CCOCC1)c1ccc2c(c1)N(Cc1c(F)cccc1Cl)C(=O)CS2	1.6	·	-3.0	0.69	i	0.3	1.5
CCN1C(=O)c2cccc3c(S(=O)(=O)Nc4ccncc4)ccc1c23	-98	14%	-1.5	0.7	·	8.4	·
Cc1ccc(NC(=O)Cn2cccc2)cc1Cl	-0.6	0%	2.6	0.71	i	1.4	11
Cc1cc(C)c2c(CN3CCOCC3)cc(=O)oc2c1	6.2	4%	1.9	0.62	i	0.8	-2.3
CC1CCCCC1NC(=O)C1CCN(S(=O)(=O)c2cccc3nonc23)CC1 (stereo not drawn)	0.9	-6%	6.3	0.71	i	-0.6	-1.5
CC(=NCCCn1ccnc1)c1c(C)[nH]n(-c2ccc([N+](=O)[O-])cc2)c1=O	14	-7%	-0.6	0.64	i	0.7	0.5
COc1ccc(C2C(C(=O)NCc3cccnc3)c3ccccc3C(=O)N2C)cc1OC (stereo not drawn)	2.3	?	-1.5	0.71	·	·	·
Nc1nc(N2CCN(c3ccccn3)CC2)nc2ccccc12	-9.1	-4%	3.1	0.6	i	1.6	2.7
Cc1ccc(S(=O)(=O)N2[C@@H](c3ccc(Br)cc3)C(C(=O)O)=CC[C@H]2c2cccs2)cc1	1.1	·	-4.0	0.64	·	·	-2.6
[O-]C1=N/[N+](=C/c2ccccc2)CC1	7.3	?	0.9	0.69	i	14	-4.2
C[C@H](CO)N1C[C@H](C)[C@@H](CN(C)S(=O)(=O)c2ccccc2)Oc2c(NS(=O)(=O)c3cccs3)cccc2C1=O	2.5	·	20	0.78	i	·	-5.3&0.5
CC(C)n1c(O)c(N=NC(=O)C2COc3ccccc3O2)c2ccccc21 (stereo not drawn)	3.6	2%	1.9	0.69	i	?	39*
NC(=O)NC(=O)C(Nc1ccc(N2CCCCC2)cc1)c1ccccc1 (stereo not drawn)	-1.0	·	-1.8	0.66	i	1.5	16
CN(c1ccc(C(=O)Nc2ccccn2)cc1)S(=O)(=O)c1ccccc1	3.1	·	-4.8	0.68	·	2.0	-0.6
Cc1ccc2oc(=O)c3cnn(CC(=O)N4CCCc5ccccc54)c3c2c1	1.4	-4%	1.8	0.75	i	0.0	-8.5
Cc1nn(-c2ccccc2)c(C)c1C(=O)OCC(=O)NC(=O)NC1CCCCC1	3.5	-12%	-3.6	0.7	·	1.7	·

(next part)
SMILES	UCH37 DUB inh	Vif TR-FRET	HNF4A DNA FP	Ecoli growth	FGF22 binding	RanGTP-Impb inh	AF4-AF9 inh
O=C(Nc1ccccc1)c1cc(C2COCCN2C(=O)CCCc2ccccc2)on1 (stereo not drawn)	·	·	0.9	·	i	·	1.4
Cc1cccc(C)c1-n1nnnc1C1(C)CCC(=O)N1CCCN1CCOCC1 (stereo not drawn)	·	·	2.8	·	i	·	0.0
COc1cc(CNc2ccc3[nH]c(=O)[nH]c3c2)cc(Br)c1OCc1ccccc1F	1.1	1%	1.1	0.72	i	1.7	-8.0
Cc1cc(-c2ccc(/C=N/n3cnnc3)o2)ccc1Cl	·	-5%	-5.4	·	i	-5.2	-0.1
Cc1c(Cc2ccccc2)c(=O)oc2cc(OCC(=O)NCc3ccccn3)ccc12	-146	·	0.6	0.67	i	5.6	-0.6
Cc1ccc(CN2CCC2(C)C(=O)NC(C)C)cc1 (stereo not drawn)	·	·	-0.8	·	i	·	-3.5
Cc1cc(S(=O)(=O)N2CCCc3ccccc32)ccc1-n1cnnn1	-0.6	·	-0.3	0.66	i	1.6	-0.7
CC1(C)CC(=O)C(C=NCCN2CCN(C3CC(=O)N(c4ccc(Br)cc4)C3=O)CC2)=C(O)C1 (stereo not drawn)	1.6	-4%	5.0	0.68	i	0.3	-0.2
Nc1ccc2oc(-c3ccccn3)nc2c1	2.6	21%	-1.3	0.7	·	5.0	·
C=CCn1c(=O)c(C(=O)NCc2ccccc2Cl)c(O)c2ccccc21	-0.9	·	-0.1	0.72	i	-1.9	-1.0
CS(=O)(=O)c1ccc2nc(NC(=O)Nc3cccc(Cl)c3)sc2c1	2.3	-6%	-1.1	0.66	i	0.1	-13
O=S1(=O)c2ccccc2C(O)(c2ccccc2)c2ccccc21	-0.1	-4%	1.1	0.69	i	·	2.6

Assay outcomes from PubChem BioAssay.

The list is partial; count on the stated rates, not on these rows.
